Bead autofluor – flagged as autofluorescent in microsphere protease counterscreen; compound autofluorescence counterscreen, microsphere flow cytometry; hits give high values; fluorescence intensity (no concentration beside the values); 360,000 compounds, 3.1% hits; AID 624483;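 active = at least 3 SD above the mean of all compounds, about 16000 in these data; inconclusive = too few beads counted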;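 note: 100 nL of 1 mM stock went into each well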
Sa RN4220 lethal – kills Staphylococcus aureus RN4220; inhibition, % (concentration not given with the values); 330,000 compounds, 0.33% hits; AID 1259311; S. aureus RN4220 growth, OD600, 16 h;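 active = z-score of -3 or lower and OD600 up to 0.18 on both plates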;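 note: plate controls were untreated cells for no effect and reference antibiotic for full effect; stock transfer was 100 nL into about 80 µL; one replicate is shown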
Mtb hypoxia inh – Mtb hypoxia fluorescent reporter inhibition; M. tuberculosis hypoxia-regulated fluorescent reporter, fluorescence; fluorescence inhibition, % (no concentration beside the values); 300,000 compounds, 0.1% hits;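 active = 35 to 45% if threefold the growth effect, above 45% if 1.5-fold the growth effect; inactive = the rest, general growth blockers included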;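 note: wells of about 50 µL received 100 nL stock; 0% = vehicle wells and 100% = reference inhibitor wells; whole bacteria with a GFP reporter of the hypoxia response; strong numbers were not always called active; many hits fall short of the cut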
ugtP null kill – kills S. aureus RN4220 lacking UgtP | S. aureus RN4220 ugtP deletion, OD600 growth, 16 h; some inactives read as strong as hits | growth inhibition, % (concentration not given with the values) | 330,000 compounds, 0.54% hits | AID 1259309;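 active = z-score under -3 and OD600 up to 0.15 on both plates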;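 note: plate controls were untreated wells for no effect and antibiotic for full effect; wells of about 80 µL received 100 nL stock; the first replicate is given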
BJeLR viability – BJeLR cell viability loss; BJeLR (HRASV12) viability, CellTiter-Glo ATP luminescence, 48 h; reference of the scale not given here; inhibition, % (concentration not given with the values); 300,000 compounds, 0.17% hits;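 active = replicate mean above 50%; inconclusive = above 50% but judged a plate artefact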;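 note: 50 nL library stock added to about 25 µL; numbers are from one replicate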
PrP UTR inh – suppresses PrP 5' UTR mRNA reporter expression; cell-based PrP 5' UTR mRNA reporter, plate reader; inhibition, % (test concentration not listed); 340,000 compounds, 0.35% hits; AID 488862;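 active = every replicate at 50% or more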;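 note: 0 = median of the neutral control wells; tested in H4 reporter cells; numbers are from one replicate; inactives centre near -14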
Mtb hypoxia inh growth – second read-out of Mtb hypoxia inh, no call of its own (marks repeat the call); growth inhibition, %; measured here: M. tuberculosis growth (absorbance);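 0% = vehicle and 100% = reference antibiotic; read after six days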
* = called active by the depositor.

CCOc1ccc(-c2c[n+]3c(n2-c2ccccc2)CCCCC3)cc1 was read as Bead autofluor 2180, Sa RN4220 lethal 0.3, Mtb hypoxia inh 21, ugtP null kill 4, BJeLR viability 15, PrP UTR inh -9 and Mtb hypoxia inh growth 0.
Screening O=[N+]([O-])c1ccc(Sc2n[nH]c(-c3ccco3)n2)nc1 returned Bead autofluor 1996, Sa RN4220 lethal 17, Mtb hypoxia inh 9, ugtP null kill 9, BJeLR viability -1, PrP UTR inh -13 and Mtb hypoxia inh growth -3.
Cc1nn(-c2ccccc2)c(N)c1Sc1ccccc1[N+](=O)[O-] was read as Bead autofluor 1858, Sa RN4220 lethal 3.3, Mtb hypoxia inh 1, ugtP null kill 8, BJeLR viability 1, PrP UTR inh 0 and Mtb hypoxia inh growth -1.
Screening COc1ccc(S(=O)(=O)N2CCOC2CNC(=O)C(=O)NCC(C)C)cc1 (stereo unspecified) returned Bead autofluor 5931, Sa RN4220 lethal 2.2, Mtb hypoxia inh -1, ugtP null kill -2, BJeLR viability 2, PrP UTR inh -1 and Mtb hypoxia inh growth 4.
`O=S(=O)(Nc1ccc2cn[nH]c2c1)c1ccccc1` gave Bead autofluor 4607, Sa RN4220 lethal 2.9, Mtb hypoxia inh 8, ugtP null kill 7, BJeLR viability -3, PrP UTR inh -13 and Mtb hypoxia inh growth 3.
For CN(C)c1cccc(C(=O)NCc2ccccc2)c1 the results were Bead autofluor 4241, Sa RN4220 lethal 3.2, ugtP null kill 1, BJeLR viability 1 and PrP UTR inh 7.
Screening CCN1C(=O)C(CC(=O)Nc2ccc(OC)cc2)N(CCc2ccc(F)cc2)C1=S (stereo unspecified) returned Bead autofluor 4667, Sa RN4220 lethal -13, Mtb hypoxia inh 3, ugtP null kill -4, BJeLR viability 22, PrP UTR inh -14 and Mtb hypoxia inh growth 14.
`CN1CCN(c2ccccc2NC(=O)c2sc3ccccc3c2Cl)CC1` gave Bead autofluor 4220, Sa RN4220 lethal -0.9, Mtb hypoxia inh -1, ugtP null kill -1, BJeLR viability 14, PrP UTR inh -14 and Mtb hypoxia inh growth 11.
`COc1ccc(S(=O)(=O)Nc2cccc(-c3ccc4nncn4n3)c2)c(OC)c1` gave Bead autofluor 6022, Sa RN4220 lethal 4.6, Mtb hypoxia inh 1, ugtP null kill 4, BJeLR viability 7, PrP UTR inh -5 and Mtb hypoxia inh growth 3.
`CCN(CC)CCCNC(=S)N1CCC(c2nc3ccccc3[nH]2)CC1` gave Bead autofluor 4203, Sa RN4220 lethal 2.5, Mtb hypoxia inh -3, ugtP null kill 3, BJeLR viability -4, PrP UTR inh -5 and Mtb hypoxia inh growth 4.

Next section, overlapping the part above by 3 compounds.
`CN1CCN(c2ccccc2NC(=O)c2sc3ccccc3c2Cl)CC1` gave Bead autofluor 4220, Sa RN4220 lethal -0.9, Mtb hypoxia inh -1, ugtP null kill -1, BJeLR viability 14, PrP UTR inh -14 and Mtb hypoxia inh growth 11.
`COc1ccc(S(=O)(=O)Nc2cccc(-c3ccc4nncn4n3)c2)c(OC)c1` gave Bead autofluor 6022, Sa RN4220 lethal 4.6, Mtb hypoxia inh 1, ugtP null kill 4, BJeLR viability 7, PrP UTR inh -5 and Mtb hypoxia inh growth 3.
`CCN(CC)CCCNC(=S)N1CCC(c2nc3ccccc3[nH]2)CC1` gave Bead autofluor 4203, Sa RN4220 lethal 2.5, Mtb hypoxia inh -3, ugtP null kill 3, BJeLR viability -4, PrP UTR inh -5 and Mtb hypoxia inh growth 4.
CN(C)S(=O)(=O)c1ccc(Cl)c(C(=O)OCC(=O)c2ccco2)c1 was read as Bead autofluor 3833, Sa RN4220 lethal 2.5, Mtb hypoxia inh -2, ugtP null kill 2, PrP UTR inh 2 and Mtb hypoxia inh growth -1.
`Cc1ccc2oc(=O)cc(CN3CCOCC3)c2c1` gave Bead autofluor 2648, Sa RN4220 lethal 5.9, ugtP null kill -1, BJeLR viability 3 and PrP UTR inh -1.
CC(=O)c1cccc(NC(=O)C2C3C=CC(C3)C2C(=O)O)c1 (stereo unspecified) was read as Bead autofluor 4469, Sa RN4220 lethal -0.4, Mtb hypoxia inh -7, ugtP null kill 1, BJeLR viability -8, PrP UTR inh -15 and Mtb hypoxia inh growth 8.
`Cc1ccc(C(=O)c2cc3ccccc3o2)cc1` gave Bead autofluor 4550, Sa RN4220 lethal 18, Mtb hypoxia inh 11, ugtP null kill 11, BJeLR viability 6, PrP UTR inh -124 and Mtb hypoxia inh growth 6.
O=C(CN(C(=O)CSc1nnc(COc2ccccc2)o1)c1ccc(F)cc1)NC1CCCC1 was read as Bead autofluor 7811, Sa RN4220 lethal 5.7, Mtb hypoxia inh 1, ugtP null kill 0, BJeLR viability -9, PrP UTR inh -8 and Mtb hypoxia inh growth 7.
CCOc1ccc(N(CC(=O)NCCc2ccc(Cl)cc2)S(=O)(=O)c2c(C)[nH]c(=O)[nH]c2=O)cc1 was read as Bead autofluor 5430, Sa RN4220 lethal -1.4, Mtb hypoxia inh -3, ugtP null kill 7, BJeLR viability -7, PrP UTR inh -11 and Mtb hypoxia inh growth 2.
O=C(c1ccco1)N1CCCN(Cc2nc(-c3ccc4c(c3)OCO4)no2)CC1 was read as Bead autofluor 4724, Sa RN4220 lethal 0.5, Mtb hypoxia inh 4, ugtP null kill 14, BJeLR viability 11, PrP UTR inh -12 and Mtb hypoxia inh growth -3.
Screening O=C(Nc1cccc(Cl)c1)c1nc[nH]c1C(=O)NCCN(CCNC(=O)c1[nH]cnc1C(=O)Nc1cccc(Cl)c1)CCNC(=O)c1[nH]cnc1C(=O)Nc1cccc(Cl)c1 returned Bead autofluor 4110, Sa RN4220 lethal -3.3, Mtb hypoxia inh 5, ugtP null kill -5, PrP UTR inh -5 and Mtb hypoxia inh growth 7.
Screening O=c1o[nH]c(-c2ccccc2)c1N=Nc1c(F)cccc1Cl returned Bead autofluor 3632, Sa RN4220 lethal 41, Mtb hypoxia inh 3, ugtP null kill 44, BJeLR viability 4, PrP UTR inh -17 and Mtb hypoxia inh growth 8.
COc1ccc(CCN(Cc2ccccn2)C(=S)Nc2ccccc2C)cc1OC was read as Bead autofluor 4139, Sa RN4220 lethal 13, Mtb hypoxia inh 5, ugtP null kill 3, BJeLR viability -5, PrP UTR inh -47 and Mtb hypoxia inh growth 3.
Cc1ccc(CN=C(Nc2ccccc2)NC2CCCCC2)cc1 was read as Bead autofluor inconclusive, Sa RN4220 lethal 0.9, Mtb hypoxia inh -6, ugtP null kill -5, BJeLR viability 11, PrP UTR inh -17 and Mtb hypoxia inh growth 6.
Cc1cc(C)n(C(C)CNS(=O)(=O)c2ccc(C)c(C)c2)n1 (stereo unspecified) was read as Bead autofluor 2936, Sa RN4220 lethal 3.4, Mtb hypoxia inh 8, ugtP null kill 12, BJeLR viability -4, PrP UTR inh -14 and Mtb hypoxia inh growth -6.
`N#Cc1cccc(C(=O)OCC(=O)c2ccc3c(c2)NC(=O)CO3)c1` gave Bead autofluor inconclusive, Sa RN4220 lethal 3.1, Mtb hypoxia inh 4, ugtP null kill 11, BJeLR viability 5, PrP UTR inh -25 and Mtb hypoxia inh growth -1.
`CC(Sc1nc2sc3c(c2c(=O)n1-c1ccccc1)CCCC3)C(=O)O` (stereo unspecified) gave Bead autofluor 3634, Sa RN4220 lethal -8.6, Mtb hypoxia inh 8, ugtP null kill 6, BJeLR viability 17, PrP UTR inh -17 and Mtb hypoxia inh growth 0.
Screening O=C(c1ccco1)N1CCN(C(=S)Nc2ccc(Br)cc2Cl)CC1 returned Bead autofluor 4717, Sa RN4220 lethal 4.4, Mtb hypoxia inh 4, ugtP null kill 1, BJeLR viability -2, PrP UTR inh -3 and Mtb hypoxia inh growth -14.
For O=C1CN(c2nc(-c3cccnc3)nc3sc4c(c23)CCCC4)CCN1 the results were Bead autofluor 3350, Sa RN4220 lethal 4.6, Mtb hypoxia inh 8, ugtP null kill 4, BJeLR viability -6, PrP UTR inh -11 and Mtb hypoxia inh growth 7.
Screening O=C(CSc1cc(Cl)ccc1Cl)NC1CCCc2ccccc21 (stereo unspecified) returned Bead autofluor 2051, Sa RN4220 lethal -1.7, Mtb hypoxia inh 2, ugtP null kill -1, BJeLR viability 4, PrP UTR inh -14 and Mtb hypoxia inh growth 3.
CN1CCN(CCCNC(=O)c2ccc3c(c2)N(Cc2ccc(F)cc2)CCS3)CC1 was read as Bead autofluor 5144, Sa RN4220 lethal -3.2, Mtb hypoxia inh 7, ugtP null kill 14, BJeLR viability 0, PrP UTR inh -30 and Mtb hypoxia inh growth 4.
`O=C(NC1CCCc2c1cnn2-c1ccc(F)cc1F)c1csnn1` (stereo unspecified) gave Bead autofluor 5585, Sa RN4220 lethal -2.0, Mtb hypoxia inh 13, ugtP null kill -2, BJeLR viability 3, PrP UTR inh 2 and Mtb hypoxia inh growth 15.
CN(C(=O)c1ccc(NC(=O)C2CCN(C(=O)OC(C)(C)C)CC2)cc1)C1CCC1 was read as Bead autofluor 3779, Sa RN4220 lethal 4.3, Mtb hypoxia inh 7, ugtP null kill -8, PrP UTR inh -15 and Mtb hypoxia inh growth 14.
Screening Cc1ccc(C)c(N2CCN(C(=O)CCn3c(=S)[nH]c4cc5c(cc4c3=O)OCO5)CC2)c1 returned Bead autofluor 9090, Sa RN4220 lethal 8.1, Mtb hypoxia inh 15, ugtP null kill -9, BJeLR viability -11, PrP UTR inh -38 and Mtb hypoxia inh growth 6.
Cc1cccc(C(=O)N[C@H](C(=O)Nc2ccc(C)c(S(=O)(=O)N(C)C)c2)C(C)C)c1 was read as Bead autofluor 4852, Sa RN4220 lethal 4.2, Mtb hypoxia inh 10, ugtP null kill 4, BJeLR viability 1, PrP UTR inh -37 and Mtb hypoxia inh growth 4.
`c1csc(-c2cn3ccc4ccccc4c3n2)c1` gave Bead autofluor 5172, Sa RN4220 lethal 15, Mtb hypoxia inh 24, ugtP null kill -2, BJeLR viability 0, PrP UTR inh -68 and Mtb hypoxia inh growth 8.
Screening O=C(O)Cc1nc(-c2cccnc2)sc1-c1ccc(Br)cc1 returned Bead autofluor 4896, Sa RN4220 lethal 4.9, Mtb hypoxia inh 0, ugtP null kill 2, BJeLR viability -3, PrP UTR inh 7 and Mtb hypoxia inh growth -5.
`O=C(CCc1ccccc1O)N/N=C/c1ccc(Sc2cccc3cccnc23)o1` gave Bead autofluor 9473, BJeLR viability -2 and PrP UTR inh -25.
`O=C(COC(=O)Cc1c[nH]c2ccccc12)Nc1cccc2ccccc12` gave Bead autofluor 2511, Sa RN4220 lethal 5.4, Mtb hypoxia inh 4, ugtP null kill -7, BJeLR viability 20, PrP UTR inh -6 and Mtb hypoxia inh growth 1.
For CC(=O)Nc1sc(N/N=C\c2ccccc2F)nc1-c1cccs1 the results were Bead autofluor 1956, BJeLR viability -12 and PrP UTR inh 17.
For CCn1c2ccccc2c2cc(NC(=O)COC(=O)Cc3cn4ccsc4n3)ccc21 the results were Bead autofluor 1997, Sa RN4220 lethal 1.0, ugtP null kill 9, BJeLR viability 2 and PrP UTR inh -7.
CC1CCCN(C(=O)C2(NC(=O)Nc3cccc(F)c3)CCCCC2)C1 (stereo unspecified) was read as Bead autofluor 4237, Sa RN4220 lethal 2.8, Mtb hypoxia inh -6, ugtP null kill 4, BJeLR viability 9, PrP UTR inh -19 and Mtb hypoxia inh growth 7.
Screening CN(C)C1(CNC(=O)c2cc(S(=O)(=O)N3CCOCC3)c(Cl)cc2Cl)CCCCC1 returned Bead autofluor 7045, Sa RN4220 lethal 1.7, Mtb hypoxia inh 3, ugtP null kill 5, BJeLR viability 13, PrP UTR inh -13 and Mtb hypoxia inh growth -4.
O=C1CC(N2CCOCC2)C(=O)N1c1ccc2c(c1)OCO2 (stereo unspecified) was read as Bead autofluor 4979, Sa RN4220 lethal 4.7, ugtP null kill -13, BJeLR viability -8 and PrP UTR inh -19.
`CSc1ccccc1C(=O)Nc1ccc(C)cc1C` gave Bead autofluor 2681, Sa RN4220 lethal 1.4, Mtb hypoxia inh 7, ugtP null kill 5, BJeLR viability 6, PrP UTR inh -22 and Mtb hypoxia inh growth -3.
Screening CC1CCCC(C)N1N=Cc1c[nH]c2ccc(Br)cc12 (stereo unspecified) returned Sa RN4220 lethal 0.4, Mtb hypoxia inh 7, ugtP null kill -19 and Mtb hypoxia inh growth 2.
CC(C)C(=O)Nc1ccc2oc(=O)ccc2c1 was read as Bead autofluor 3167, Sa RN4220 lethal 3.4, Mtb hypoxia inh 6, ugtP null kill 2, BJeLR viability 6, PrP UTR inh -21 and Mtb hypoxia inh growth 16.
